PKD1 inh: inhibitors of human PKD1 kinase | 0.056% of 200,000 active | inhibition, %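 (about 10 µM by stock and volumes)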 | PKD1 kinase fluorescence polarization assay | AID 797;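 active = inhibition of 50% or more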;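 also: controls were vehicle for no effect and a reference inhibitor for full effect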
HSV replic up: HSV replication enhancement; HSV replication augmentation in cells, fold increase; maximum fold increase; 0.005% of 220,000 active; AID 1956;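 active = peak rise of 1.5-fold or more in the series; tested in PC3 cells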;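 also: first round at 10 µM; read as green reporter fluorescence; hits show the peak of a series up to 25 µM; 1 = signal of infected wells without compound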
GALR2 agonist: activates the human galanin receptor 2; 0.48% of 140,000 active; AID 803; activation, %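 (tested at 5 µM)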; O43603; GALR2-expressing cells, agonist activation read-out;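 active = above mean plus 3 SD of all compounds, about 5% in these data, not always enough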;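 also: 0% = vehicle buffer wells and 100% = reference agonist at full effect; tested in CHO reporter cells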
Target sequence (O43603 whole entry, looked up): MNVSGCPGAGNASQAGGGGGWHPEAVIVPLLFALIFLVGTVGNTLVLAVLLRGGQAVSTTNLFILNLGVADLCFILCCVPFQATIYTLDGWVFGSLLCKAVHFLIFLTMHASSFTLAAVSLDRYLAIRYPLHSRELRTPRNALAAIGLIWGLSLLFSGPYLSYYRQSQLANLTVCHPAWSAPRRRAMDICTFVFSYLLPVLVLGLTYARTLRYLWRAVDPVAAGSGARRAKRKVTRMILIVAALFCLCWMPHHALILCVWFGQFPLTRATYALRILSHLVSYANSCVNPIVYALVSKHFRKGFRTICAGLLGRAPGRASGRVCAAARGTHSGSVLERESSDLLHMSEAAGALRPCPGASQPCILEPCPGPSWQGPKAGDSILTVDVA
RGS16-Gao HTS: modulates binding between human RGS16 and Galphao; binding response (% of control), % at 10 µM; O15492+P09471; 0.38% of 220,000 active; bead-based flow cytometry RGS16-Galphao binding, fluorescence; actives lie on both sides;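 active = below 25% or above 175%, edge rows of some plates excepted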;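 also: Galphao activated by GDP with aluminum fluoride before binding; 100% = wells without compound and 0% = beads without RGS; some results beyond the cut were filed as inactive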
Target sequence (O15492 whole entry, looked up): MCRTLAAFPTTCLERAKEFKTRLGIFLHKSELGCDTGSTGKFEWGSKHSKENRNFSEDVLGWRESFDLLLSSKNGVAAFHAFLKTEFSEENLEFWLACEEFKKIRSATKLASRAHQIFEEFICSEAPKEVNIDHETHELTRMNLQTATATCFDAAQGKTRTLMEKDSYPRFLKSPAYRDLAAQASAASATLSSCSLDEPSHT
Target sequence (P09471 whole entry, looked up): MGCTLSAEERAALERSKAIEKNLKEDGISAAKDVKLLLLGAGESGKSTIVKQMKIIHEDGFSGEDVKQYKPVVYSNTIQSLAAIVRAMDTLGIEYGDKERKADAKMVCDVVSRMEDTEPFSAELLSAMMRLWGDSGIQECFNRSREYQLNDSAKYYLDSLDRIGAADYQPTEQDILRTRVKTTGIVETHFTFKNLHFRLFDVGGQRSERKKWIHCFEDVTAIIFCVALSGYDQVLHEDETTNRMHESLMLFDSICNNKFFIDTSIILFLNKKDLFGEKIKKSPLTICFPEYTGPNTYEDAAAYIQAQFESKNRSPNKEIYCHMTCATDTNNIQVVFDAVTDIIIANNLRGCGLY
Insulin prom inh: TRM-6 insulin promoter activity inhibition | inhibition, % at 2 µM | 0.9% of 130,000 active | AID 1273 | TRM-6 cells (human fetal islet line), insulin promoter-eGFP reporter, imaging; reporter expression induced with tamoxifen;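 active = inhibition above the mean plus 3 SD, with well images judged a real hit on visual review, cut at about 60% in these data, passing the limit was not always enough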
Insulin prom inh cell count: further read-out of Insulin prom inh, marked with its call; normalized cell count, %; measured here: cell count, toxicity; reference of the scale not given here;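 cells exposed to compound for 48 h; stained nuclei by imaging scaled within each plate; lower means fewer cells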
HSV replic up primary fold: further read-out of HSV replic up, marked with its call; fold increase; compound at 10 µM; measured here: primary screen fold increase 10 uM; tested in PC3 cells;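 GFP signal in the first replicate; 1 = infected wells without compound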
* hit, by the source's call; i = inactive; · = no result given.

Structure	PKD1 inh	HSV replic up	HSV replic up primary fold	GALR2 agonist	RGS16-Gao HTS	Insulin prom inh	Insulin prom inh cell count
CCCC(=O)N(CCc1ccc(OC)cc1)Cc1nc2ccccc2c(=O)[nH]1	-3	·	·	0.1	93	32	80
COc1cc2c(=O)n(CC3CCCO3)c(=O)n(CC(=O)Nc3ccc(F)cc3F)c2cc1OC (stereo not given)	-4	·	·	-0.3	102	·	·
CCN1C(=O)c2cccc3c(S(=O)(=O)Nc4ccccn4)ccc1c23	-15	i	0.8	-2.0	93	-31	115
Cc1ccc(Nc2ncnc3nc[nH]c23)cc1Cl	-9	i	0.8	-0.2	100	·	·
COc1ccccc1CNC(=O)c1ccc(Br)o1	9	i	0.93	-0.2	86	-23	92
O=C(c1ccc2c3c(cccc13)CC2)C1CCCN(C(=O)c2ccc[n+]([O-])c2)C1 (stereo not given)	·	i	0.93	·	106	·	·
CCC(c1nc2ccccc2c(=O)n1CCN1CCOCC1)N1C(=O)c2ccccc2C1=O (stereo not given)	4	i	0.94	-1.1	109	66*	35*
COc1ccc(CCn2c(C)cc(C(=O)CSc3nnnn3-c3ccccc3)c2C)cc1	-3	i	0.79	-0.8	101	40	138
Cc1cccc(N(CC(=O)Nc2ccccc2-c2ccccc2)S(=O)(=O)c2ccccc2)c1C	-5	i	1.1	-0.1	93	·	·
CCCC(c1nnnn1Cc1ccccc1)N1CCN(c2ccccc2OC)CC1 (stereo not given)	-5	i	1.1	-2.0	102	·	·
CCCCn1c(SCC(=O)Nc2cc(C)on2)nnc1-c1cccnc1	6	i	0.91	-1.2	101	-12	107
CNc1nc(Cl)nc(NC(C)(C)C)n1	7	i	0.9	1.0	100	0	114
O=C(CSc1c2c(nc3cc(Cl)ccc13)CCCC2)NCCCN1CCOCC1	1	i	0.66	·	99	-24	98
COc1ccc(/C=C/c2cc(C(F)(F)F)on2)cc1	·	i	0.96	·	111	·	·
c1ccc(N2CCN(c3nc4ccccc4[nH]3)CC2)nc1	-12	i	0.99	·	112	·	·
NS(=O)(=O)c1ccc(NC(=S)NCc2ccc3c(c2)OCO3)cc1	2	i	1.1	·	89	·	·
Cc1nnc(SCc2nnc(-c3cccs3)o2)n1Cc1ccccc1	-1	i	1	·	101	·	·
COc1cc(C(=O)OCC(=O)N2CCCCC2C)cc(NC(=O)c2cccs2)c1OC (stereo not given)	4	i	0.89	·	101	·	·
O=C(O)/C=C/C(=O)Nc1ccccc1-c1ccccc1	0	i	0.88	-2.5	112	0	121
CCN(CC)c1ccc(S(=O)(=O)N2CCOCC2)cc1NC(=O)CSc1n[nH]c(N)n1	·	i	1	·	106	·	·
Cc1c(NP(=O)(c2ccc(Br)cc2)c2ccc(Br)cc2)c(=O)n(-c2ccccc2)n1C	3	i	0.85	·	103	-120	138
O=C(CC1C(=O)NCCN1C(=O)Nc1ccc(C(F)(F)F)cc1)Nc1ccc(F)cc1 (stereo not given)	·	i	0.65	·	74	·	·
CCc1cccc(NC(=O)CCNS(=O)(=O)c2cccc3nonc23)c1	-2	i	1	·	113	-36	86
COCCOCCOCCC(=O)NC1CC2CCC1(C)C2(C)C (stereo not given)	-10	i	1.1	0.9	106	-45	94
COc1cc(Cl)cc(C2NC(=S)NC(c3ccccc3)=C2C(C)=O)c1OCC(=O)O (stereo not given)	-9	i	0.97	·	97	·	·
CC(C)OC(=O)c1c(NC(=O)c2ccco2)sc2c1CCCC2	-2	i	0.84	-3.7	101	33	135
COc1ccc(Br)cc1[C@H]1[C@@H]2C=CCC[C@@]2(C)C(=O)N1Cc1ccccc1	·	i	0.8	·	106	·	·
CCOc1ccc2nc(NC(=O)Cn3[nH]c(=O)c4ccccc4c3=O)sc2c1	·	i	0.98	·	99	·	·
NC(=O)C1CCN(Cc2nc3cc(Cl)ccc3c(=O)[nH]2)CC1	1	i	0.88	-0.8	101	2	88
CCOC(=O)C1(CC2CC2)CCN(C(=O)c2cc(OC)nc3ccccc23)CC1	2	i	0.93	·	99	·	·

(further entries)
Structure	PKD1 inh	HSV replic up	HSV replic up primary fold	GALR2 agonist	RGS16-Gao HTS	Insulin prom inh	Insulin prom inh cell count
Cc1ccc(F)cc1NC(=O)c1cccc(N(C)C)c1	-2	i	0.99	0.4	100	-62	123
CCN1CCN(Cc2ccc(NC(=O)c3ccc(C)c(NC(=O)c4cc(-c5ccc(Br)cc5)n[nH]4)c3)cc2C(F)(F)F)CC1	·	i	0.49	·	102	·	·
Cc1cc(C)nc(OC(=O)c2ccc(Cl)cc2Cl)n1	-5	i	1	·	102	33	110
COc1ccc(Oc2c(Cl)cnn(-c3ccc(F)cc3)c2=O)cc1	1	i	0.82	-0.4	101	0	36
COc1cc(OC)cc(C(=O)NCC(=O)OCc2nc3ccccc3s2)c1	4	i	1	·	92	·	·
CN(C)S(=O)(=O)N1CCN(Cc2ccccc2)CC1	-2	i	0.96	-1.6	105	-4	74
CC(=O)N(Cc1ccccn1)Cc1ccco1	·	i	1.1	·	100	·	·
COc1ccc(C(=O)N(Cc2ccc(N(C)C)cc2)C2CCS(=O)(=O)C2)cc1 (stereo not given)	-10	i	1	-0.6	104	·	·
O=C(Nc1cccc(F)c1)Nc1ccccn1	-6	i	1	-1.1	100	·	·
Cc1nn(C)c(C)c1Sc1ccc(Br)cc1	1	i	0.9	-2.0	101	·	·
CC/C(=N/NC(=O)c1ccccc1)c1ccc(OCCN2CCOCC2)cc1	-3	i	1	0.4	229	38	92
Cc1coc2c(O)cc3c(c12)OC1(N2CCCCC2)C(=O)NCCCC31 (stereo not given)	-10	i	0.87	-1.6	89	-11	114
COc1ccc(NC(=S)Nc2ccc(OCc3ccccc3)cc2)c(OC)c1	-8	i	0.96	-1.2	37	·	·
Cc1noc(C)c1COC(=O)[C@@H](NC(=O)c1ccccc1Cl)C(C)C	-8	i	0.96	·	96	·	·
CCCn1c(SCC(=O)O)nc2ccccc21	-2	i	0.77	-1.5	102	10	154
CC(Sc1nnc(-c2cccnc2)n1-c1ccccc1F)C(=O)N1CCCc2ccccc21 (stereo not given)	0	i	0.99	-0.3	111	16	119
CC(=O)c1c(C)nc2ccc(Br)cc2c1-c1ccccc1	-10	i	0.93	·	100	14	67
O=C(Nc1cc(S(=O)(=O)N2CCOCC2)ccc1N1CCCC1)c1cc(=O)[nH]c2ccccc12	·	i	0.81	·	108	·	·
CCOC(=O)c1ccc(NC(=O)c2cc3c(s2)CCC3)cc1	·	i	0.92	·	103	·	·
O=C(Nc1ccc(C(F)(F)F)cc1)c1cccnc1N1CCOCC1	0	i	0.93	-1.3	102	-29	164
CCOC(=O)N1CCN(Cc2ccccn2)CC1	0	i	0.83	0.8	96	0	97
O=c1[nH]c(NCCO)nc2ncn(Cc3ccccc3)c12	-4	i	0.9	-1.6	100	·	·
O=C(COC(=O)COc1ccc(Cl)cc1)Nc1ccc(F)c([N+](=O)[O-])c1	4	i	0.95	-1.3	88	-36	56
O=C(CN(c1ccc(Cl)cc1)S(=O)(=O)c1ccccc1)N/N=C/c1ccco1	-3	i	0.98	-3.6	103	17	132
O=C1N(Cc2ccccc2F)c2ccccc2C12OCCCO2	0	i	0.97	-0.1	107	-51	65
CCN(CC)S(=O)(=O)c1ccc(NC2c3ccccc3C(=O)N2CCN2CCOCC2)cc1 (stereo not given)	-4	i	0.88	-3.4	102	·	·
COC(=O)C1=C(O)CSC1=Nc1ccc(C)cc1	7	i	0.93	0.1	84	-21	119
CC(Sc1nc2cc([N+](=O)[O-])ccc2n1-c1cccc(C(F)(F)F)c1)C(=O)NC(N)=O (stereo not given)	-15	i	0.83	-0.5	95	0	73
CC(NC(=O)COC(=O)Cc1ccc(-c2ccccc2)cc1)c1ccccc1 (stereo not given)	-6	i	0.93	-0.9	100	40	52
CNC(=S)Nc1ccc(-c2nc3ccc(C)cc3s2)cc1	-3	i	0.95	·	104	·	·

As a short view, part of the list above.
Structure	PKD1 inh	HSV replic up	HSV replic up primary fold	GALR2 agonist	RGS16-Gao HTS	Insulin prom inh	Insulin prom inh cell count
CC(Sc1nc2cc([N+](=O)[O-])ccc2n1-c1cccc(C(F)(F)F)c1)C(=O)NC(N)=O (stereo not given)	-15	i	0.83	-0.5	95	0	73
CC(NC(=O)COC(=O)Cc1ccc(-c2ccccc2)cc1)c1ccccc1 (stereo not given)	-6	i	0.93	-0.9	100	40	52
CNC(=S)Nc1ccc(-c2nc3ccc(C)cc3s2)cc1	-3	i	0.95	·	104	·	·

Next section
Structure	PKD1 inh	HSV replic up	HSV replic up primary fold	GALR2 agonist	RGS16-Gao HTS	Insulin prom inh	Insulin prom inh cell count
COc1ccc(-c2nc(-c3ccccc3OC)no2)cc1OC	21	i	0.86	0.3	99	·	·
CCOc1ccc(-n2ccnc2SCC(=O)Nc2nnc(C)s2)cc1	-16	i	0.91	0.1	100	-18	147
C#CCNC(=O)C1CCN(c2ccc(S(=O)(=O)N3CCOCC3)cc2Cl)CC1	-7	i	0.93	·	112	-64	103
CC(=O)Oc1ccc(Cl)cc1/C=C/c1cc(OC(C)=O)c2ccccc2n1	-3	·	·	-1.3	105	-340	81
C=C1c2cc(C)c(C)cc2NC(=O)N1c1ccccc1	·	i	0.99	·	109	·	·
COC(=O)C1C2C=CC(C3CC23)C1C(=O)OCC(=O)c1ccccc1 (stereo not given)	1	i	1	-2.5	96	-9	108
Cc1cccc(-c2noc(CCCOc3ccc(Cl)cc3Cl)n2)c1	0	i	0.95	-1.5	97	-14	35
Cc1cc(S(=O)(=O)N2CCCC2)ccc1OCC(=O)N1CCC(C(N)=O)CC1	-8	i	0.96	·	97	0	126
Cc1ccc(N2C(=O)CSC2c2ccccn2)cc1Cl (stereo not given)	-6	·	·	-2.2	99	5	86
CC(/C=N/NC(=O)c1cccs1)=C\c1ccccc1	-2	i	0.95	·	103	33	120
O=C(Cn1nc(-c2ccccc2)ccc1=O)NCc1ccc2c(c1)OCO2	-6	i	0.86	-0.6	105	·	·
COc1ccc2[nH]c(=O)c(CN(CC3CCCO3)C(=O)Nc3ccc(F)cc3)cc2c1 (stereo not given)	13	i	1	0.1	100	-25	69
COC(=O)c1ccc(C23CC4(C2)[C@H](CN(Cc2ccc(C(F)(F)F)cc2)[C@@H]4c2ccccc2)C3c2ccccc2)cc1 (stereo not given in full)	·	i	0.76	·	105	·	·
CCOC(=O)c1ccc(S(=O)(=O)N2CCN(C(C)=O)CC2)cc1	-9	i	1.1	·	92	-22	81
Cc1nnc(SCC(=O)NC(=O)NCCC(C)C)s1	0	i	1	·	110	25	170
COc1ccc(S(=O)(=O)N(C)CC(=O)Nc2ccc3c(c2)OCO3)cc1	-7	i	0.93	0.5	96	41	57
Nn1c(Cc2cccc3ccccc23)nnc1SCCOc1ccc(F)cc1	5	i	1.1	-0.6	25	20	55
COc1ccccc1C1CCN(Cc2c(C)[nH]c3ccccc23)CC1	·	i	0.81	·	97	·	·
CC(C)Oc1ccc(/C=N/NC(=O)C2CCCN2S(=O)(=O)c2ccc(Cl)cc2)cc1 (stereo not given)	-4	i	0.85	-1.8	182	-31	76
CCOc1ccccc1CNC(=O)c1nn(CC)cc1[N+](=O)[O-]	-4	i	1	-0.6	74	12	74

Compound activity from PubChem.
